Source: PubChem BioAssay
Mtb H37Rv: Mycobacterium tuberculosis H37Rv growth inhibition, cell based, confirmatory dose response (AID 1949). most inactive calls were filed without a number and no value below 0 was filed. one-dose inhibition, % at 10 µg/mL; IC50 in µg/mL for titrated hits. hit rate 1.6% among 100,000;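 active = confirmed in a dose series; inconclusive = about 50% or more but not retested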;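 also: bacteria grown 7 days with compound before Alamar blue readout; 0% = untreated bacteria and 100% = reference antibiotic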
* hit, by the source's call; i = inactive; u = inconclusive. These rows are one share of the data (hit frequency here may not be typical).

SMILES	Mtb H37Rv
COc1ccc(NC(=O)C2=C(C)NC(=O)NC2c2cccc(OC)c2OC)c(OC)c1 (stereo unspecified)	i
Cc1cc(Br)ccc1OCC(=O)Nc1ccccc1CO	i
Cc1ccc(Nc2nc(NCc3ccco3)c3ccccc3n2)cc1	1.44µg/mL*
CCOC(=O)c1ccc(COc2ccccc2OC)c(Br)c1	33.5%
S=C(NCc1ccco1)Nc1ccc2c(c1)OCO2	1.4%
COc1ccccc1N1CCN(C(=O)C2CCN(C(=O)c3ccccc3C)CC2)CC1	2.5%
CCOC(=O)N1CCN(C(=O)c2ccc(N(C)S(C)(=O)=O)cc2)CC1	i
CCCCCOC(=O)Nc1ccc(S(=O)(=O)Nc2ccccc2Cl)cc1	2.7%
O=C(NC1CCCCC1)c1ccc(C#CC2(O)CCCCC2)cc1	i
Fc1cccc(Cl)c1CSc1ncn[nH]1	i
O=C(C1CCN(CCCc2ccccc2)CC1)N1CCN(c2ccccc2F)CC1	i
Cn1c(CCNC(=O)c2ccccc2)nc2cc(NC(=O)NC3CCCCC3)ccc21	i
COCCNC(=S)Nc1ccc(I)cc1	i
COc1ccccc1CNC(=O)NC12CC3CC(CC(C3)C1)C2	i
Cc1ccc(-c2nc3nc(C)cc(C)n3n2)cc1	i
Cn1c(CN2CCCC2)nc2cc(NC(=O)C3CCCCC3)ccc21	i
CCN(CC)c1ccc(NC(=O)COc2ccc(C(C)(C)C)cc2)c(C)c1	4.3%
CC(C)(C)c1cc(C(F)(F)F)nc(SCCCNC(=O)Cc2cccs2)n1	1.8%
CCOc1ncnc2ccc(Br)cc12	i
O=C(Oc1cccc([N+](=O)[O-])c1)N1CCCCC1	5.2%
COc1ccc(NS(=O)(=O)c2ccc(Cl)s2)c(OC)c1	2.7%
O=S(=O)(c1ccc2ccccc2c1)N1CCC(N2CCN(c3ccccc3)CC2)CC1	1.4%
Cc1ccc(SC(C)C(=O)NCC(C)C)cc1 (stereo unspecified)	i
CC(=O)c1cccc(NC(=O)C(=O)NCC2CCCO2)c1 (stereo unspecified)	i

Looked up above:
Mtb H37Rv result of O=S(=O)(c1ccc2ccccc2c1)N1CCC(N2CCN(c3ccccc3)CC2)CC1 reads 1.4%
Mtb H37Rv result of CC(C)(C)c1cc(C(F)(F)F)nc(SCCCNC(=O)Cc2cccs2)n1 reads 1.8%

More structures follow.
SMILES	Mtb H37Rv
Cc1nc2ccccc2n1CC(O)COc1ccc(C2C=CCC2)cc1 (stereo unspecified)	1.22µg/mL*
COC(=O)N(C)c1ccccc1C(=O)N1CCOCC1	i
Cc1cccc(C(=O)Nc2nnc(SCC(=O)Nc3ccc(Cl)cc3Cl)s2)c1	i
Cc1c(F)cccc1NC(=O)C1CC=CCC1C(=O)O (stereo unspecified)	i
Cc1cc2c(C(F)(F)F)cc(=O)oc2c2c1NCCC2	i
Cc1cc(C)c2nc(NC(=O)C(C)C)sc2c1	2.8%
COC(=O)c1c(C)oc2ccc(NS(=O)(=O)c3ccc(F)cc3C)cc12	7.8%
O=C(CSc1ncn(-c2ccccc2)n1)Nc1nc2c(s1)CCCC2	i
COc1ccc(CCNC(=O)c2ccc(-c3cccc(Cl)c3)o2)cc1OC	i
CCOCc1cc(C2NC(=S)NC(C)=C2C(=O)OCC)ccc1OC (stereo unspecified)	i
CC(=O)c1ccc(NC=C(S(=O)(=O)c2ccc(C)cc2)S(=O)(=O)c2ccc(C)cc2)cc1	i
Cc1onc(-c2ccccc2)c1C(=O)N1CCN(C(=O)c2ccco2)CC1	i

In the list so far, these contain sulfur:
SMILES	Mtb H37Rv
S=C(NCc1ccco1)Nc1ccc2c(c1)OCO2	1.4%
CCOC(=O)N1CCN(C(=O)c2ccc(N(C)S(C)(=O)=O)cc2)CC1	i
CCCCCOC(=O)Nc1ccc(S(=O)(=O)Nc2ccccc2Cl)cc1	2.7%
Fc1cccc(Cl)c1CSc1ncn[nH]1	i
COCCNC(=S)Nc1ccc(I)cc1	i
CC(C)(C)c1cc(C(F)(F)F)nc(SCCCNC(=O)Cc2cccs2)n1	1.8%
COc1ccc(NS(=O)(=O)c2ccc(Cl)s2)c(OC)c1	2.7%
O=S(=O)(c1ccc2ccccc2c1)N1CCC(N2CCN(c3ccccc3)CC2)CC1	1.4%
Cc1ccc(SC(C)C(=O)NCC(C)C)cc1 (stereo unspecified)	i
Cc1cccc(C(=O)Nc2nnc(SCC(=O)Nc3ccc(Cl)cc3Cl)s2)c1	i
Cc1cc(C)c2nc(NC(=O)C(C)C)sc2c1	2.8%
COC(=O)c1c(C)oc2ccc(NS(=O)(=O)c3ccc(F)cc3C)cc12	7.8%
O=C(CSc1ncn(-c2ccccc2)n1)Nc1nc2c(s1)CCCC2	i
CCOCc1cc(C2NC(=S)NC(C)=C2C(=O)OCC)ccc1OC (stereo unspecified)	i
CC(=O)c1ccc(NC=C(S(=O)(=O)c2ccc(C)cc2)S(=O)(=O)c2ccc(C)cc2)cc1	i

(further entries)
SMILES	Mtb H37Rv
Fc1ccccc1N1CCN(C2CCN(CC3CC4C=CC3C4)CC2)CC1 (stereo unspecified)	0.1%
CCOc1ccccc1OCCCNCc1ccccc1	i
COc1ccc(C(=O)Nc2cccc(C(=O)OCc3ccc(C(C)=O)cc3)c2)cc1	i
Cc1cccc(C(=O)Nc2ccc(C)cc2Br)c1	19.3%
CCN(CC)S(=O)(=O)c1cc(C)ccc1OC	1.0%
CCC(=O)Nc1cccc(NC(=S)NC(=O)c2c(F)c(F)c(OC)c(F)c2F)c1	i
O=C(O)c1cc(I)ccc1NC(=O)C1CC1	6.6%
CN(C(=O)c1ccc(COc2ccc3ccccc3c2)o1)c1ccccc1	42.5%
COc1ccc(N2C(=O)N(c3ccccc3Cl)C3CS(=O)(=O)CC32)cc1 (stereo unspecified)	i
Cn1c(SCC(=O)c2cccc(Br)c2)nnc1-c1ccccn1	i
CCC(=O)NC(=S)Nc1ccc2ccccc2c1	i
O=c1[nH]c2ccc(S(=O)(=O)N3CCCCCC3)cc2[nH]1	i
CCC(C)c1ccc(NC(=O)c2c(F)c(F)c(F)c(F)c2F)cc1 (stereo unspecified)	i
CCC1(C)Cc2c(sc3nnn(Cc4ccccc4Cl)c(=O)c23)CO1 (stereo unspecified)	1.2%
CC(C)C(=O)Nc1cccc(NC(=S)NC(=O)c2ccc(Cl)cc2)c1	i
O=C(Nc1nc2c(s1)CCCC2)C1CCCCC1	i
Oc1ccc(Cl)cc1-c1nnc(-c2cc(Cl)ccc2O)o1	u
COc1ccc(NC(=O)c2ccc(N(Cc3ccc(C)cc3)S(C)(=O)=O)cc2)cc1OC	1.0%
CCC(=O)N1CC2(C)CN(C(=O)CC)CC(c3ccccc3)(C1)C2=O	i
Fc1ccccc1-c1nc(-c2cnc3ccccc3c2)c(-c2cccs2)[nH]1	5.05µg/mL*
Cc1ccc(-c2nn(-c3ccccc3)cc2C(=O)NCC(=O)c2ccccc2)cc1	1.7%
O=C(Cn1cnc2ccccc21)N/N=C/c1cccc(O)c1	i
COc1ccc(CN2CCC(N(C)Cc3ccccc3)CC2)cc1	i
Cc1cc(C)nc(NC(=S)Nc2ccc(S(N)(=O)=O)cc2)c1	i
CC(=O)c1cc(C(=O)Nc2ccc(I)cc2)oc1C	i
COCCNc1nc(-c2ccc(Cl)cc2)nc2ccccc12	i
COc1ccc(C(=O)NCC2CCCO2)cc1OC (stereo unspecified)	i
CCOC(=O)c1ccc(NC(=O)c2cccc(C)c2[N+](=O)[O-])cc1	8.3%
O=C(c1cc2c(ccc3ccccc32)oc1=O)N1CCc2ccccc21	i
Cc1ccc(OCC(=O)Nc2nc(-c3ccc(S(=O)(=O)N4CCCCCC4)cc3)cs2)cc1	i
COc1ccccc1C(=O)Nc1ccccc1C(=O)NCc1ccco1	i
CC(=O)c1ccc(Nc2nc(-c3cc4cc(Cl)ccc4oc3=O)cs2)cc1	i
O=[N+]([O-])c1ccc(COc2ccc(CNc3ccc(F)cc3)cc2Cl)cc1	0.8%
CCOc1ccc(C(=O)Nc2ccc(N3CCN(C(=O)c4ccccc4C)CC3)cc2)cc1[N+](=O)[O-]	i
COC(=O)c1c(NC(=O)c2ccc(-c3ccccc3)cc2)sc(C)c1C	i
COC(=O)C1=CN(C2CC2)C=C(C(=O)OC)C1c1cc(Br)c(OC)c(OC)c1	i
O=C(Nc1nnc(Cc2ccc(Cl)cc2)s1)c1ccccc1Oc1ccccc1	i
Cn1c(CNC(=O)c2ccc(Cl)cc2Cl)nnc1SCC(=O)N1CCN(c2ccccc2)CC1	2.8%
CCc1ccccc1NC(=O)COc1cc(C)ccc1C(C)C	3.0%
CN(C)CCCNC(=O)COc1cccc2ccccc12	i
NC(=O)C1(Nc2ccccc2)CCCCC1	i
O=C(Nc1ccc(Cc2ccc(O)c(NC(=O)c3cccs3)c2)cc1O)c1cccs1	i
CCC(Oc1nc2ccccc2nc1-c1ccccc1NC(C)=O)C(=O)c1ccccc1 (stereo unspecified)	i
Cc1cccc(OCCNc2ccc(C(F)(F)F)cc2[N+](=O)[O-])c1	3.9%
Cc1ccc(C(=O)Nc2ccccc2C(=O)Nc2cccc(C)c2)cc1	1.2%
Cc1cccc(NC(=O)CCC2CCCC2)c1C	i
Cc1cccc(NCc2cc(Cl)ccc2O)n1	i
O=S(=O)(NC12CC3CC(CC(C3)C1)C2)c1ccc(NC(=S)NCc2ccco2)cc1	i
CC(=O)CC(c1ccc(Br)cc1)c1c(O)c2ccccc2oc1=O (stereo unspecified)	i
COc1ccc(NC(=S)N2CCN(C(=O)c3ccco3)CC2)cc1OC	11.2%
CC(=O)NC(c1ccc(N(C)C)cc1)c1cc(Cl)c2cccnc2c1O (stereo unspecified)	5.9%
COc1ccccc1-n1c(=O)c2c3c(sc2n2c(C)nnc12)CCC3	i
Cc1ccc(N2CCN(C(=O)N(C)c3ccccc3)CC2)cc1C	i
CC1=C(C(=O)Nc2ccc(C)c(C)c2)C(c2cc(Cl)c(O)c(Cl)c2)NC(=O)N1 (stereo unspecified)	i
Cc1cnn(CCCNC(=O)c2cc(-c3cccnc3)nc3ccc(Cl)cc23)c1	i
CCOc1ccccc1C(=O)Nc1cc(Cl)ccc1O	4.22µg/mL*
Nc1nc(-c2ccco2)nn1C(=O)c1cccnc1	i
Cc1ccc(NC(=O)C(=O)NCc2ccccc2C)cc1C	i
COc1ccc(N(CC(=O)NC2CCCCC2)S(=O)(=O)c2ccc(C)cc2)cc1Cl	i
COc1ccccc1NC(=O)COc1cc(C)c(Br)c(C)c1	i

The list continues:
SMILES	Mtb H37Rv
Cc1ccc(S(=O)(=O)CCOc2nc3c(C(F)(F)F)cc(C4CC4)nc3o2)cc1	i
NC(=O)CCCc1c[nH]c2ccccc12	i
CCSc1nnc(NC(=O)CCC2CCCC2)s1	i
Cc1cc(C)c(S(=O)(=O)NCCC2=CCCCC2)c(C)c1	i
NC(=O)C1CCN(Cc2nc3ccccc3c(=O)[nH]2)CC1	i
CC1CC(C)CN(CC(O)COCC2COc3ccccc3O2)C1 (stereo unspecified)	i
CN(CC(=O)Nc1ccncc1)S(=O)(=O)c1ccc(Br)cc1	i
CCOc1ccccc1N(CC(=O)NC)S(C)(=O)=O	i
CCOC(=O)C(CC)Oc1ccc2c(C)cc(=O)oc2c1C(=O)c1ccccc1 (stereo unspecified)	i
CC1CCN(C(=O)c2ccc(CN3CCOCC3)cc2)CC1	i
CCc1ccc(-n2c(-c3cc(Cl)ccc3OC)n[nH]c2=S)cc1	i
Cc1cc(C)c(NC(=O)c2ccc(N(Cc3ccccc3Cl)S(C)(=O)=O)cc2)c(C)c1	i
O=c1c2c(-c3ccc(Cl)cc3)csc2nc2n1CCC2	i
O=C(c1c(F)cccc1F)N1CCN(C/C=C/c2ccccc2)CC1	i
Cc1cc(C(=O)Nc2nc3ccc([N+](=O)[O-])cc3s2)cs1	i
CCc1ccc(N(CC(=O)NCc2ccco2)S(=O)(=O)c2ccccc2)cc1	i
COc1cccc2c(C)nc(Nc3nc4ccccc4c(=O)[nH]3)nc12	i
O=C(CCN1C(=O)c2ccccc2C1=O)N1CCN(c2ccccc2)CC1	5.7%
Cc1cc(C(=O)N2CC(C)CC(C)C2)ccc1[N+](=O)[O-] (stereo unspecified)	i
COC(=O)C1CCN(C(=O)CCCOc2ccc(Cl)cc2Cl)CC1	i
CCCCOc1ccc(C(=O)NC2CCN(C)CC2)cc1	i
Cc1cc(S(=O)(=O)NCc2ccccc2)ccc1OCC(=O)N1CCN(C)CC1	i
Cc1cc(OCCN2CCCCC2)cc(C(C)C)c1	i
CCOc1ccc(C(=O)Nc2cc3nn(-c4ccccc4)nc3cc2Cl)cc1Br	0.9%
CCc1nc(SCC(=O)Nc2ccc(Br)cc2C)c(C#N)c(C(F)(F)F)c1C	3.4%
CCOc1ccccc1NC(=O)Cn1cnc2sc(-c3ccccc3)cc2c1=O	1.1%
Cc1cccc(NC(=S)NCCN(C)C)c1	i
CN(CC(=O)Nc1cccc(Cl)c1Cl)S(=O)(=O)c1cc(Cl)ccc1Cl	i
COc1ccccc1NS(=O)(=O)c1ccccc1F	6.1%
CCCC(=O)NC(=S)Nc1ccc(S(=O)(=O)Nc2ccc(OCC)cc2)cc1	4.7%
Cc1cc(NS(=O)(=O)c2ccc(NC(=O)C(c3ccccc3)c3ccccc3)cc2)nc(C)n1	i
COc1ccccc1CCNC(=O)Cc1cccs1	i
O=C(COc1ccc(Cl)cc1)Nc1ccc(-c2nc3cc(Cl)ccc3o2)cc1	i
COc1c(F)c(F)c(C(=O)Nc2ccc(N3CCN(Cc4ccccc4)CC3)cc2)c(F)c1F	u
N#Cc1ccsc1NC(=O)CSc1ncn[nH]1	i
CCC(=O)NC(=S)Nc1ccc(S(=O)(=O)N(C)C)cc1	i
C=CCN(CC=C)C(=O)C(Cl)(Cl)Cl	i
COc1ccc(Br)cc1S(=O)(=O)N1CCCC(C)C1 (stereo unspecified)	i
Cc1ccc(-c2nc(N)c3c4c(sc3n2)CCCC4)cc1	0.4%
CC(C)C(=O)Nc1cccc(C(=O)N2CCN(c3ccc([N+](=O)[O-])cc3)CC2)c1	4.5%
O=C(OCc1cccc(Br)c1)c1cccc2ccccc12	i
COc1ccc(NC(=O)C2=C(C)NC(=O)NC2c2ccccc2C)c(OC)c1 (stereo unspecified)	2.2%
CC(C)(C)c1ccccc1NC(=O)c1cccnc1	i
CCN(CC)CCN1C(=O)C(O)=C(C(=O)c2cccs2)C1c1ccncc1 (stereo unspecified)	i
COc1cc([N+](=O)[O-])cc2cc(C(=O)N3CCN(c4cc(Cl)ccc4Cl)CC3)c(=O)oc12	i
